Screening results: PubChem, Broad Institute
Env fusion inh: inhibitors of HIV Env-mediated cell fusion; 1.1% of 360,000 active; HeLa-JRFL Env/CEM21 cell fusion, luciferase; inhibition, % at 12.3 µM;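 active = mean replicate inhibition score of at least 50 and every replicate individually at or above 50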;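 also: 0% = plate neutral controls and 100% = maraviroc near 300 nM; one replicate is shown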
Yeast UUG start: modulators of start codon recognition fidelity in yeast; AID 602363; S. cerevisiae UUG-firefly luciferase reporter, luminescence/redox ratio; 0.13% of 350,000 active; activity score, % at 18.7 µM;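 active = replicate mean at a twofold rise or more, about +100% in these data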;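 also: firefly luciferase made from a UUG start codon reports start codon fidelity; reporter light over untreated wells divided by growth signal over untreated wells; some hits fall short of that in this replicate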
An asterisk follows results filed as active; [ ] = another dose, or the depositor's remark. Only part of the results is shown (hit frequency here may not be typical).

Yeast UUG start	Env fusion inh	Compound
-5	5[16.7 µM]	COc1cccc(C#Cc2cnc3c(c2)C(=O)N([C@@H](C)CO)C[C@H](C)[C@@H](CN(C)C(=O)C2CCC2)O3)c1
3	-15[16.7 µM]	C[C@@H]1CN([C@H](C)CO)C(=O)c2cc(NS(=O)(=O)c3ccccc3)ccc2O[C@@H](C)CCCCO[C@H]1CN(C)Cc1ccc2c(c1)OCO2
-23	-11[16.7 µM]	O=C(C[C@H]1CC[C@H](NC(=O)C2CCC2)[C@H](CO)O1)Nc1nccs1
8	-32[16.7 µM]	C[C@@H]1CN([C@@H](C)CO)C(=O)c2cc(NC(=O)c3ccncc3)ccc2O[C@@H](C)CCCCO[C@H]1CN(C)C(=O)Nc1ccc2c(c1)OCO2
2	11[16.7 µM]	C[C@H]1CN([C@@H](C)CO)C(=O)Cc2cc(NC(=O)Cn3cnnn3)ccc2O[C@@H]1CN(C)C(=O)Nc1ccccc1
-11	6[16.7 µM]	CO[C@@H]1CN(C)C(=O)c2cc(NS(C)(=O)=O)ccc2OC[C@@H](C)N(C(=O)CC2CC2)C[C@@H]1C
8	-9[16.7 µM]	CC(=O)N(C)C[C@H]1Oc2ncc(C#Cc3cccnc3)cc2C(=O)N([C@H](C)CO)C[C@H]1C
12	-14[16.7 µM]	C[C@@H]1CN([C@H](C)CO)C(=O)c2cccc(NS(=O)(=O)c3ccccc3)c2O[C@H]1CN(C)CC1CCCCC1

Overlap with the part before: 3 entries; new compounds follow.
Yeast UUG start	Env fusion inh	Compound
-11	6[16.7 µM]	CO[C@@H]1CN(C)C(=O)c2cc(NS(C)(=O)=O)ccc2OC[C@@H](C)N(C(=O)CC2CC2)C[C@@H]1C
8	-9[16.7 µM]	CC(=O)N(C)C[C@H]1Oc2ncc(C#Cc3cccnc3)cc2C(=O)N([C@H](C)CO)C[C@H]1C
12	-14[16.7 µM]	C[C@@H]1CN([C@H](C)CO)C(=O)c2cccc(NS(=O)(=O)c3ccccc3)c2O[C@H]1CN(C)CC1CCCCC1
-20	-2[16.7 µM]	CC(C)C#Cc1cnc2c(c1)C(=O)N([C@@H](C)CO)C[C@H](C)[C@@H](CN(C)Cc1ccccn1)O2
-2	-22[16.7 µM]	COc1ccc(NC(=O)N(C)C[C@H]2Oc3ccc(NC(=O)c4ccncc4)cc3CC(=O)N([C@H](C)CO)C[C@H]2C)cc1
10	41[16.7 µM]	C[C@H]1CCCCO[C@@H](CN(C)Cc2ccc(C(F)(F)F)cc2)[C@@H](C)CN([C@@H](C)CO)C(=O)c2cc(NC(=O)NC3CCCCC3)ccc2O1
-15	2[16.7 µM]	COc1ccc(NC(=O)N(C)C[C@@H]2OCCCC[C@H](C)Oc3ccc(NS(=O)(=O)c4cccs4)cc3C(=O)N([C@@H](C)CO)C[C@@H]2C)cc1
-13	-18[16.7 µM]	COc1ccc(-c2cnc3c(c2)C(=O)N([C@H](C)CO)C[C@@H](C)[C@H](CN(C)C)O3)cc1
-5	7[16.7 µM]	O=C(Cc1ccncc1)NCC[C@H]1CC[C@@H](NC(=O)C2CCOCC2)[C@@H](CO)O1
-27	7[16.7 µM]	C[C@H]1CCCCO[C@H](CN(C)C(=O)C2CCCCC2)[C@@H](C)CN([C@@H](C)CO)C(=O)c2cc(NC(=O)Nc3ccc(F)cc3)ccc2O1
9	6[16.7 µM]	O=C(NCC[C@H]1CC[C@@H](NC(=O)Nc2cc(F)ccc2F)[C@@H](CO)O1)Nc1ccc(Cl)cc1

By substructure, those above containing an aryl methoxy group
Yeast UUG start	Env fusion inh	Compound
-5	5[16.7 µM]	COc1cccc(C#Cc2cnc3c(c2)C(=O)N([C@@H](C)CO)C[C@H](C)[C@@H](CN(C)C(=O)C2CCC2)O3)c1
-2	-22[16.7 µM]	COc1ccc(NC(=O)N(C)C[C@H]2Oc3ccc(NC(=O)c4ccncc4)cc3CC(=O)N([C@H](C)CO)C[C@H]2C)cc1
-15	2[16.7 µM]	COc1ccc(NC(=O)N(C)C[C@@H]2OCCCC[C@H](C)Oc3ccc(NS(=O)(=O)c4cccs4)cc3C(=O)N([C@@H](C)CO)C[C@@H]2C)cc1
-13	-18[16.7 µM]	COc1ccc(-c2cnc3c(c2)C(=O)N([C@H](C)CO)C[C@@H](C)[C@H](CN(C)C)O3)cc1

(listing goes on)
Yeast UUG start	Env fusion inh	Compound
6	-2[16.7 µM]	Cc1noc(C)c1S(=O)(=O)N(C)C[C@@H]1Oc2ccc(NC(=O)Cc3ccccc3)cc2CC(=O)N([C@H](C)CO)C[C@H]1C
-11	4[16.7 µM]	O=C(NCC[C@@H]1CC[C@@H](NS(=O)(=O)c2ccc(F)cc2)[C@@H](CO)O1)Nc1ccc(F)cc1
25	14[16.7 µM]	C[C@H]1CN([C@@H](C)CO)C(=O)Cc2cc(NC(=O)c3ccncc3)ccc2O[C@H]1CN(C)Cc1ccc(C(F)(F)F)cc1
-18	1[16.7 µM]	C[C@@H]1CN([C@@H](C)CO)C(=O)c2cccc(NC(=O)C3CCOCC3)c2O[C@H]1CN(C)C(=O)Nc1ccc(F)cc1
4	6[16.7 µM]	CC(=O)Nc1ccc2c(c1)C(=O)N(C)[C@H]1CC[C@H](CC(=O)NCc3ccccc3)O[C@@H]1CO2
-10	0[16.7 µM]	COc1ccc(NC(=O)Nc2ccc3c(c2)C(=O)N([C@H](C)CO)C[C@H](C)[C@@H](CN(C)Cc2ccncc2)OCCCC[C@@H](C)O3)cc1
-10	-2[16.7 µM]	C[C@H]1CN([C@@H](C)CO)C(=O)c2cc(Br)cnc2O[C@H]1CN(C)CC1CCOCC1
2	-59[16.7 µM]	C[C@@H]1CN([C@@H](C)CO)C(=O)c2cc(NC(=O)NC3CCCCC3)ccc2O[C@@H](C)CCCCO[C@@H]1CN(C)S(=O)(=O)c1ccccc1
-8	-1[16.7 µM]	Cc1ccc(S(=O)(=O)NCC[C@H]2CC[C@@H](NC(=O)c3cccc(F)c3)[C@H](CO)O2)cc1
-12	-52[16.7 µM]	Cc1ccc(S(=O)(=O)N(C)C[C@@H]2Oc3c(NC(=O)Nc4ccc(F)cc4)cccc3C(=O)N([C@@H](C)CO)C[C@H]2C)cc1
0	8[16.7 µM]	C[C@H]1CN([C@@H](C)CO)C(=O)c2cc(NC(=O)CCCCCC(=O)Nc3ccccc3N)ccc2O[C@H]1CN(C)Cc1ccc(C(F)(F)F)cc1
-6	15[16.7 µM]	OC(CSc1ccncc1)CC(O)c1ccccc1 (stereo not given)
-9	8[16.7 µM]	C[C@H](CO)N1C[C@H](C)[C@H](CN(C)S(=O)(=O)c2cn(C)cn2)Oc2c(NS(=O)(=O)c3ccc(Cl)cc3)cccc2C1=O
2	35[16.7 µM]	CCCC#Cc1cnc2c(c1)C(=O)N([C@H](C)CO)C[C@@H](C)[C@H](CN(C)C(=O)c1ccc3c(c1)OCO3)O2
16	-4[16.7 µM]	C[C@H]1CCCCO[C@H](CN(C)S(=O)(=O)c2cn(C)cn2)[C@@H](C)CN([C@@H](C)CO)C(=O)c2cc(NC(=O)Cc3ccccc3)ccc2O1
-11	-14[16.7 µM]	C[C@H](O)C#Cc1ccc2c(c1)O[C@@H](CN(C)Cc1ccncc1)[C@@H](C)CN([C@@H](C)CO)S2(=O)=O
-4	7[16.7 µM]	COc1ccc(NC(=O)Nc2ccc3c(c2)C(=O)N([C@H](C)CO)C[C@H](C)[C@@H](CN(C)C(=O)C2CCCCC2)OCCCC[C@@H](C)O3)cc1
-2	-4[16.7 µM]	C[C@@H]1CN([C@@H](C)CO)C(=O)c2cc(NC(=O)Cc3ccccc3)ccc2O[C@H]1CN(C)CC1CCCCC1
-12	-3[16.7 µM]	C[C@H]1CN([C@@H](C)CO)S(=O)(=O)c2ccc(-c3ccccc3F)cc2O[C@H]1CN(C)Cc1ccncc1
-3	15[16.7 µM]	CCCC#Cc1ccc2c(c1)O[C@@H](CN(C)C(=O)C1CCC1)[C@@H](C)CN([C@H](C)CO)S2(=O)=O
0	10[16.7 µM]	COCC(=O)N1C[C@@H](C)[C@H](OC)CN(C)C(=O)c2ccc(NC(=O)Nc3ccccc3)cc2OC[C@H]1C
-13	72*[16.7 µM]	CC(C)NC(=O)Nc1ccc2c(c1)C(=O)N([C@H](C)CO)C[C@@H](C)[C@@H](CN(C)C(=O)Nc1ccc(C(F)(F)F)cc1)OCCCC[C@@H](C)O2
-4	-1[16.7 µM]	C[C@H]1CN([C@@H](C)CO)C(=O)c2cc(NS(=O)(=O)c3cccs3)ccc2O[C@H]1CN(C)C(=O)Nc1ccccc1
-1	-6[16.7 µM]	O=C(CCN1CCCCC1)N[C@H]1CC[C@@H](CCNC(=O)c2cc(Cl)cc(Cl)c2)O[C@H]1CO
6	-15[16.7 µM]	COc1ccc(-c2cn(CC[C@H]3CC[C@H](NS(=O)(=O)c4ccccc4C)[C@@H](CO)O3)nn2)cc1
28	-1[16.7 µM]	COc1ccc(S(=O)(=O)Nc2ccc3c(c2)CC(=O)N([C@H](C)CO)C[C@H](C)[C@H](CN(C)C(=O)Nc2ccccc2)O3)cc1
-5	18[16.7 µM]	O=C(NCC[C@H]1CC[C@H](NC(=O)c2cnccn2)[C@@H](CO)O1)Nc1ccc(F)cc1
-5	-8[16.7 µM]	C[C@@H]1CN([C@@H](C)CO)S(=O)(=O)c2ccc(C#CCN(C)C)cc2O[C@@H]1CN(C)Cc1cccnc1
2	-10[16.7 µM]	C[C@H]1CN([C@@H](C)CO)C(=O)c2cc(C#CC3CC3)cnc2O[C@@H]1CN(C)C(=O)c1ccccc1
24	0[16.7 µM]	C[C@H]1CN([C@@H](C)CO)C(=O)Cc2cc(NS(=O)(=O)c3ccc(F)cc3)ccc2O[C@H]1CN(C)S(=O)(=O)c1ccc(F)cc1
-1	-2[16.7 µM]	COc1ccc(S(=O)(=O)Nc2ccc3c(c2)C(=O)N([C@H](C)CO)C[C@@H](C)[C@H](CN(C)C(=O)NC(C)C)O3)cc1
-2	-16[16.7 µM]	CNC[C@H]1Oc2ccc(NC(=O)Cc3cn(C)c4ccccc34)cc2C(=O)N([C@H](C)CO)C[C@H]1C
-10	-35[16.7 µM]	C[C@@H]1CN([C@H](C)CO)C(=O)c2cc(NC(=O)Nc3ccc(F)cc3)ccc2O[C@@H](C)CCCCO[C@H]1CN(C)C(=O)Nc1ccccc1
1	14[16.7 µM]	C[C@@H]1CCCCO[C@@H](CN(C)C(=O)c2ccncc2)[C@H](C)CN([C@H](C)CO)C(=O)c2cc(NC(=O)CCC(F)(F)F)ccc2O1
-2	-7[16.7 µM]	C[C@@H]1CN([C@@H](C)CO)C(=O)c2cc(NC(=O)Nc3cccc4ccccc34)ccc2O[C@@H](C)CCCCO[C@@H]1CN(C)S(=O)(=O)c1ccccc1
-3	-19[16.7 µM]	C[C@H]1CN([C@@H](C)CO)C(=O)c2cc(NC(=O)Nc3ccc4c(c3)OCO4)ccc2O[C@@H]1CN(C)S(=O)(=O)c1ccccc1
18	4[16.7 µM]	COc1ccc(S(=O)(=O)Nc2ccc3c(c2)C(=O)N([C@@H](C)CO)C[C@H](C)[C@H](CN(C)C(=O)CCC(F)(F)F)OCCCC[C@@H](C)O3)cc1
24	-7[16.7 µM]	C[C@H]1CCCCO[C@H](CN(C)Cc2ccccc2)[C@@H](C)CN([C@@H](C)CO)C(=O)c2cc(NS(C)(=O)=O)ccc2O1
17	-24[16.7 µM]	C/C=C/c1ccc2c(c1)O[C@H](CN(C)C(=O)c1ccccc1)[C@@H](C)CN([C@H](C)CO)S2(=O)=O
4	2[16.7 µM]	C[C@@H]1CCCCO[C@@H](CN(C)C(=O)NC2CCCCC2)[C@@H](C)CN([C@@H](C)CO)C(=O)c2cc(NC(=O)NC3CCCCC3)ccc2O1
2	9[16.7 µM]	C/C=C/c1ccc2c(c1)O[C@H](CN(C)C(=O)CC)[C@H](C)CN([C@H](C)CO)S2(=O)=O
-2	7[16.7 µM]	C[C@@H]1CN([C@H](C)CO)C(=O)Cc2cc(NS(=O)(=O)c3ccc(Cl)cc3)ccc2O[C@@H]1CN(C)Cc1ccccc1
12	-7[16.7 µM]	C[C@@H]1CCCCO[C@H](CN(C)S(C)(=O)=O)[C@@H](C)CN([C@@H](C)CO)C(=O)c2cc(NC(=O)Nc3ccc(F)cc3)ccc2O1
-5	12[16.7 µM]	C[C@H](CO)N1C[C@H](C)[C@@H](CN(C)CC2CCCC2)Oc2ncc(Br)cc2C1=O
-5	-41[16.7 µM]	COCC#Cc1cnc2c(c1)C(=O)N([C@H](C)CO)C[C@@H](C)[C@@H](CN(C)C(=O)Cc1ccccc1)O2
-18	-6[16.7 µM]	COCCOC(=O)N1C(=O)[C@@]2(c3cc(C#CCNC(N)=O)ccc31)[C@H](C(=O)N1CCc3cc(OC)c(OC)cc3C1)[C@H]1C(=O)O[C@H](c3ccccc3)[C@H](c3ccccc3)N1[C@@H]2c1ccccc1OCCO
9	8[16.7 µM]	COc1ccc(CCNC(=O)[C@@]2(Cc3ccccc3I)c3ccccc3C(=O)N(Cc3ccccc3OC)[C@H]2c2ccc(CO)cc2)cc1
27	8[16.7 µM]	C[C@H]1CCCCO[C@@H](CN(C)C(=O)CCCN(C)C)[C@@H](C)CN([C@@H](C)CO)C(=O)c2cc(NC(=O)C3CCCCC3)ccc2O1
-11	-8[16.7 µM]	O=C(Cc1ccncc1)NCC[C@@H]1CC[C@@H](NC(=O)C2CC2)[C@@H](CO)O1
13	-2[16.7 µM]	O=C(C[C@@H]1C[C@H]2c3cc(NC(=O)NC4CCCCC4)ccc3O[C@H]2[C@H](CO)O1)NCc1ccccc1
5	-9[16.7 µM]	O=C(C[C@H]1C[C@@H]2c3cc(NC(=O)NC4CCCCC4)ccc3O[C@@H]2[C@H](CO)O1)NCC1CC1
6	12[16.7 µM]	O=C(C[C@H]1CC[C@H]2[C@@H](COC[C@H](O)CN2C(=O)Nc2ccc(C(F)(F)F)cc2)O1)NC1Cc2ccccc2C1
